Screening data as filed in PubChem.
Sa helicase inh – inhibitors of S. aureus replicative helicase, primary screen, biochemical, fluorescence unwinding readout | replicative DNA helicase (DnaC/DnaB), Staphylococcus aureus | purified S. aureus helicase, fluorescence unwinding assay; about half of the hits fall short of the stated cut | inhibition, %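 (tested at about 80 µM)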 | 120,000 compounds, 0.05% hits | AID 485395, 2010;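 active means both duplicates at 50% or more, or one of them with a favoured structure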;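 further: 0% = mean of negative control wells and 100% = mean of positive control wells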
MgrA-DNA mod – S. aureus MgrA activity modulators, primary screen, biochemical, S. aureus Newman, fluorescence polarization; inhibition, %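 (about 10 µg/mL by stock and volumes)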; 84,000 compounds, 0.13% hits; MgrA-DNA binding; AID 602314, 2012;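 active means above 50% in either of two replicates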;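 further: 0% = protein plus DNA without compound and 100% = DNA alone without protein; higher means less MgrA bound to DNA so lower polarization; one replicate is shown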
Starred values were filed as active, the others as inactive; · = not tested or not shown. The list is partial (hit frequency here may not be typical).

Sa helicase inh	MgrA-DNA mod	SMILES
21	·	C/C(Cc1ncn(-c2cc(C)on2)n1)=N\OC(=O)Nc1ccc(Cl)cc1
·	2.4	COCc1cc(=O)oc2cc(NC(=O)C3CC3)ccc12
-3	·	C(=C\c1ccccc1)/C=N/Nc1nn[nH]n1
·	-0.2	COc1cccc(C(=O)Nc2n[nH]c3ccccc23)c1
-3	·	Cc1ccc(C(=O)NN2C(C)CCCC2C)o1 (stereo unspecified)
7	·	O=C(OCN1C(=O)c2ccccc2C1=O)C1CCN(c2ccc(C(F)(F)F)cn2)CC1
-2	1.1	O=C(CSc1ncccn1)NCCC1=CCCCC1
·	-0.1	Cc1ccccc1-n1c(O)c(C2=c3cc(Br)ccc3=NC2=O)sc1=O
1	3.7	O=C(N=C1c2ccccc2CN1c1ccccc1)c1ccncc1
5	·	COc1ccc(CCNC(=O)CSc2nc3c(c(=O)n(C)c(=O)n3C)n2Cc2ccccc2F)cc1OC
18	0.3	COc1ccc(CCNC(=O)CSc2nc3cc(OC)c(OC)cc3c3nc(C)nn23)cc1OC
·	-0.9	O=C(O)c1ccc(Cl)cc1N=Cc1nc(-c2ccc(Br)cc2)oc1O
-3	·	CC(Oc1cccc(Cl)c1)C(=O)N1CCN(c2ncccn2)CC1 (stereo unspecified)
2	-1.9	CCn1c(CNC(=O)c2ccccc2)n[nH]c1=S
15	-4.4	O=C(O)c1cc(=O)[nH]c(-c2ccccc2)n1

Sorted by molar mass (descending): some entries from above
Sa helicase inh	MgrA-DNA mod	SMILES
7	·	O=C(OCN1C(=O)c2ccccc2C1=O)C1CCN(c2ccc(C(F)(F)F)cn2)CC1
-3	·	CC(Oc1cccc(Cl)c1)C(=O)N1CCN(c2ncccn2)CC1 (stereo unspecified)
-2	1.1	O=C(CSc1ncccn1)NCCC1=CCCCC1

(more compounds)
Sa helicase inh	MgrA-DNA mod	SMILES
1	·	COc1ccc(Cn2c(=O)oc3ccccc32)cc1OC
17	·	COc1nccnc1NS(=O)(=O)c1ccc(NCc2ccccc2O)cc1
8	1.6	CCc1ccc(NC(=O)Cn2cc(S(=O)(=O)c3ccccc3)c(=O)c3ccccc32)cc1
·	-1.1	O=C(NCc1ccncc1)C(=O)Nc1ccc(Cl)cc1Cl
·	-0.9	NC(=O)c1ccc([N+](=O)[O-])cc1C(N)=O
16	4.7	COC(=O)NC(C)N1C(=O)C2C3C=CC(C3)C2C1=O (stereo unspecified)
8	-0.1	Cc1ccc(-n2c(N)c(C(=O)NCc3ccco3)sc2=S)cc1
8	·	Cc1csc(-n2c(C)ccc2C)n1
15	1.6	c1ccc(CNC2=NCCC2)cc1
1	·	CCN(CC)CCN1C(=O)C(=O)/C(=C(/O)c2ccc(S(=O)(=O)N3CCOCC3)cc2)C1c1ccccc1 (stereo unspecified)
1	·	COc1cc2c(c(OC)c1OC)C(c1ccc(N(C)C)cc1)C1=C(CC(C)(C)CC1=O)N2 (stereo unspecified)
5	·	O=C(N/N=C/c1ccc(N2CCOCC2)cc1)c1ccc(Cl)cc1
-6	0.2	CCN(CC)c1ccc(N=Cc2cccs2)cc1
-4	·	O=C(CCc1ccccc1)NNc1c(Cl)cncc1Cl
-2	·	Cc1nnsc1C(=O)n1nccc1-c1cnn(-c2ccccc2)c1C

Record cards (already shown):
COC(=O)NC(C)N1C(=O)C2C3C=CC(C3)C2C1=O (stereo unspecified) in the list: Sa helicase inh = 16; MgrA-DNA mod = 4.7
COc1nccnc1NS(=O)(=O)c1ccc(NCc2ccccc2O)cc1 in the list: Sa helicase inh = 17; MgrA-DNA mod = ·
Cc1nnsc1C(=O)n1nccc1-c1cnn(-c2ccccc2)c1C in the list: Sa helicase inh = -2; MgrA-DNA mod = ·

Further results
Sa helicase inh	MgrA-DNA mod	SMILES
32	·	O=C(O)CC1C(=O)N2CCNC2=C1C(=O)c1ccccc1 (stereo unspecified)
17	3.0	S=c1[nH]nc(COc2ccc3c(c2)CCCC3)o1
-11	·	N#Cc1ccc(COC(=O)C2CC3C=CC2C3)cc1 (stereo unspecified)
-1	5.0	CCc1ccc(C2C(C#N)=C(C)NC3=C2C(=O)CCC3)cc1 (stereo unspecified)
17	·	Nc1ccc(S(=O)(=O)NC2=NCCCCC2)cc1
3	-0.6	Cc1ccnc(SCC(=O)Nc2cccc(C(F)(F)F)c2)n1
8	4.6	Cc1ccc(C(=O)n2cnnc2N)cc1
-13	·	CCOC(=O)c1c(-c2cccs2)csc1NC(=O)COC(=O)c1ccc(-n2cnnn2)cc1
-28	·	CCOc1ccc(-c2noc(-c3nnn(-c4ccccc4C(F)(F)F)c3N)n2)cc1
7	·	CCS(=O)(=O)N1CCC(C(=O)NCCCN2CCCCC2)CC1
-2	·	CCC(=O)N=c1sc2cc(NC(C)=O)ccc2n1CCOC
2	1.2	O=c1c2ccccc2nc2c3ccccc3c(N3CCCCCC3)nn12
5	·	CC(C)c1ccc(N2C(=O)C=CC2=O)cc1
13	-1.7	CCC(=O)Nc1cccc(-c2cn3cccnc3n2)c1
13	·	CCc1cccc(NC(=O)c2ccc3c(=O)n4c(nc3c2)CCCCC4)c1

Carrying on:
Sa helicase inh	MgrA-DNA mod	SMILES
15	·	CCCCN1C(=O)CN(C2CCCCC2)C(=O)C1c1ccc(OC)c(OC)c1 (stereo unspecified)
·	1.5	CSc1nsc(C)c1C#N
·	-0.7	C/C(=N\O)c1ccc(OC(=O)c2ccc(Br)o2)cc1
-11	·	O=C1C(Sc2ncn[nH]2)=C/C(=N/S(=O)(=O)c2cccs2)c2ccccc21
-3	-2.0	O=C(CCCn1c(=S)[nH]c2cc3c(cc2c1=O)OCO3)N1CCN(c2ccccc2F)CC1
-9	-1.2	COc1cc(CN2CCC3(CC2)Nc2ccccc2-n2cccc23)cc(OC)c1OC
·	-0.1	O=C(CSCc1c(F)cccc1Cl)NCCSCc1ccco1
12	3.2	COC(=O)C1=C(O)/C(=C\c2cccs2)N=C1C
17	1.4	CC(C)COC(=O)Nc1nnc(SCCOc2ccccc2)s1
28	·	Cc1[nH]n(-c2ccccc2)c(=O)c1N=Nc1ccccc1C(=O)N1CCCCC1
8	·	COc1ccccc1NC(=O)C1CCCN(S(=O)(=O)c2cnc[nH]2)C1 (stereo unspecified)
-22	3.7	O=C1NC(CCC2CCCCC2)Oc2ccccc21 (stereo unspecified)
-8	-1.6	OCc1cn(-c2ccccc2)nn1
14	·	COC(=O)c1c(NC(=O)CCS(=O)(=O)c2ccc(F)cc2)sc(C)c1C
-1	·	Oc1ccc(/C=N/n2cc(-c3ccccc3)[nH]c2=S)cc1

Further structures:
Sa helicase inh	MgrA-DNA mod	SMILES
7	·	CN(C)CCCn1c(-c2ccccc2)cc(=S)c2c1CCCC2
-189	10	COC(=O)CN1C(=S)N(C)C(=O)/C1=C/c1ccc(-c2ccc(Cl)cc2)o1
8	·	CCc1ccc(-c2nc(CN3CCC(C(=O)NCc4cccs4)CC3)c(C)o2)cc1
16	·	CCC(CC)C(=O)Oc1coc(CSc2nc(C)cs2)cc1=O
-90	22	CCCCNc1c2c3c(cccc3[nH]c1=O)C(=O)c1ccccc1-2
6	·	O=C(CSc1ccc2c(c1)OCCO2)N1CCc2ccccc2C1
·	-1.8	CCOC(=O)c1ccc2nc(C)c(C)nc2c1
-9	·	O=C(CSCCCc1ccccc1)NC1CCS(=O)(=O)C1 (stereo unspecified)
-9	·	CC(C)CS(=O)(=O)C1=NN2C(=N)/C(=C\c3ccco3)C(=O)N=C2S1
11	-1.1	Cc1ccccc1S(=O)(=O)NC1=NCCCCC1
4	-2.0	C1=C(c2ccccc2)Nc2ncnn2C1c1ccccc1 (stereo unspecified)
12	-2.1	CC(C)CC(C(=O)O)N1C(=O)C2C3c4ccccc4C(c4ccccc43)C2C1=O (stereo unspecified)
·	-1.3	COC(=O)c1sc(SC)c(-c2ccn[nH]2)c1C
1	·	CCN(c1ccccc1)c1nnc(NC(=O)Nc2cccc(OC)c2)s1
5	2.5	COC(=O)N(C)CC1Cc2ccccc2O1 (stereo unspecified)

Next part:
Sa helicase inh	MgrA-DNA mod	SMILES
-4	·	Cc1cc(C(=O)CSc2ccc(S(=O)(=O)N3CCN(C)CC3)cn2)c(C)n1C1CC1
5	0.5	Cn1c2c(c3ccccc31)CCc1nonc1-2
-7	-3.0	CCc1ccc2nc(N(CCN(C)C)C(=O)C3COc4ccccc4O3)sc2c1 (stereo unspecified)
·	-0.3	CCOC(=O)c1nnc2c(Br)c(C)nn2c1C
2	·	O=C(CN1C(=O)C2C3C=CC(C3)C2C1=O)NCC12CC3CC(CC(C3)C1)C2 (stereo unspecified)
·	-1.7	O=C(c1cc2n(n1)C(C(F)(F)F)CC(c1ccc(Cl)cc1)N2)N1CCN(Cc2ccccc2)CC1 (stereo unspecified)
4	-5.3	O=C1C2C(c3ccccc3)C=CC(c3ccccc3)C2C(=O)N1Cc1ccccc1 (stereo unspecified)
8	-1.1	COc1ccc2c(c1)c(CC(=O)NC1CCCC1)c(C)n2C(=O)c1ccc(Cl)cc1
23	0.0	COc1ccc(CNC2CCCCC2C)cc1 (stereo unspecified)
-2	·	C/C(=N\NC(=O)c1cccc(S(=O)(=O)Nc2ccc(C)cc2C)c1)c1ccco1
·	3.1	O=C(Oc1ccc(F)cc1)c1c(Cl)cccc1Cl
16	-1.1	Cc1ccc(CCNC(=O)C2CCN(c3nc4ccccc4o3)CC2)cc1
-3	·	COCC(C)NS(=O)(=O)c1ccc(NC(=O)C(Cc2ccccc2)NC(N)=O)cc1 (stereo unspecified)
·	0.1	COC1C=CC23c4cc5c(cc4CN(C[C@H]2O)[C@@H]3C1)OCO5 (stereo partly specified)
10	0.7	Cc1ccccc1-c1nc(C#N)c(NCCN2CCOCC2)o1

(more compounds)
Sa helicase inh	MgrA-DNA mod	SMILES
7	5.5	O=C1C2CC=CCC2C(=O)N1c1ccccc1O (stereo unspecified)
17	6.2	CCOc1ccc(-c2nnc3ccc(SCc4ccc(C(=O)OC)o4)nn23)cc1
-13	·	Cn1nc(C(=O)N(CCCN2CCOCC2)Cc2ccco2)c2c1-c1ccccc1SC2
·	-0.4	COc1ccc(CCNC(=S)N(C)C)cc1OC
·	0.6	O=S(Cc1cc(Cl)nc(-c2ccccc2)n1)c1ccccc1 (stereo unspecified)
-9	·	O=C(O)c1cccc2ncccc12
·	-2.3	CC1(C)Cc2c(sc3nc(SCC(=O)O)n(-c4ccccc4)c(=O)c23)CO1
-23	·	CCc1cccc(C)c1N1C(=O)CC(C)C1=O (stereo unspecified)
6	·	O=C(NCCCN1CCOCC1)c1cc(-c2ccc(F)cc2)on1
12	2.2	CCC(=O)Nc1ccc(C(=O)NCC(=O)OC)cc1
·	15	CCCCCC1CCN2c3c1cc(C(=O)O)cc3C1C=CCC1C2c1ccc(Br)cc1 (stereo unspecified)
-4	·	O=C(Nc1ccc(OC(F)(F)F)cc1)c1ccccc1-n1cnnn1
·	-1.2	Cn1c(NC2CCN(Cc3ccccc3)CC2)cc(=O)n(C)c1=O
5	·	O=C(Cc1cccc(F)c1)N1CCN(S(=O)(=O)c2ccc3c(c2)OCCO3)CC1
-11	·	CC(C)(C)P(=NC(=O)COc1ccccc1)(N1CCCCC1)N1CCCCC1

Remaining list, next part:
Sa helicase inh	MgrA-DNA mod	SMILES
9	-0.8	CCN(CC)CP(=O)(c1ccccc1)c1ccccc1
14	·	CC(=O)NNc1ccc2nc(C)sc2c1
2	-0.1	CC(C)(C)NC1=C(C(=O)c2ccccc2)N(CC(=O)c2ccccc2)S(=O)(=O)c2ccccc21
-20	·	COc1cccc(-c2nc(C(N)=O)c3c(n2)n(-c2cccc(OC)c2)c(=O)n3C)c1
2	-1.1	Cc1ccc2occ(CC(=O)Nc3nc4ccc(S(C)(=O)=O)cc4s3)c2c1
·	4.5	O=C1NC(=S)S/C1=C\c1c(F)cccc1Cl
·	-1.3	O=C1NC(=Nc2ccc(Br)cc2)SC1Cc1ccccc1 (stereo unspecified)
·	0.0	O=C1C2C3C=CC(C3)C2C(=O)N1c1cccc(N2C(=O)C3C4C=CC(C4)C3C2=O)n1 (stereo unspecified)
3	·	COCCN(Cc1ccccc1)C(=O)Cc1c(C)noc1C
13	-0.3	CCCNC(=O)Cn1ncc2c3ccccc3n(Cc3ccccc3)c2c1=O
10	-1.1	CCOc1ccc(-c2cc(CCCC(=O)Nc3ccc(CC)cc3)no2)cc1
18	0.5	O=C1N2CCSC2=NC1(Nc1nccs1)C(F)(F)F (stereo unspecified)
·	-1.1	CCC1(CC)COC2(OC1)C(=O)Nc1ccc(F)cc12
·	0.8	O=C1NC(=Nc2ccccc2)SC1Cc1ccccc1 (stereo unspecified)
-14	·	COc1cccc(N(C)C(=O)c2ccc(Cl)c(S(=O)(=O)N(C)C)c2)n1

Other compounds follow:
Sa helicase inh	MgrA-DNA mod	SMILES
-4	0.8	CCC1CCCCN1c1ncnc2c1nnn2Cc1ccccc1Cl (stereo unspecified)
10	·	CN(Cc1ccc(Br)s1)Cc1cc2c(cc1O)OCO2
6	-1.6	N#CC(C#N)=Cc1cn(-c2ccccc2)nc1C12CC3CC(CC(C3)C1)C2
-4	-4.5	O=C(O)CN1C(=O)CCCc2ccccc21
-16	·	CC1CCC(NC(=O)Nc2cn(C)c(=O)c3ccccc23)CC1 (stereo unspecified)
-2	·	CC(=O)Nc1cccc(Nc2ncnc3c2cnn3C)c1
11	-1.1	O=C(NC1CCCCC1)C(c1ccc(F)cc1)N(Cc1ccco1)C(=O)c1ccccn1 (stereo unspecified)
-5	·	Cc1nc2ccccc2c2oc(C(=O)NCCCN3CCC(C)CC3)cc12

Some values from the results shown:
In Sa helicase inh, `CN(Cc1ccc(Br)s1)Cc1cc2c(cc1O)OCO2` shows 10
In Sa helicase inh, `S=c1[nH]nc(COc2ccc3c(c2)CCCC3)o1` shows 17
In MgrA-DNA mod, `CCc1ccc(NC(=O)Cn2cc(S(=O)(=O)c3ccccc3)c(=O)c3ccccc32)cc1` shows 1.6
